High-throughput results deposited in PubChem by ICCB-Longwood Screening Facility, Harvard Medical School.
Bm FixLJ act = increases Burkholderia fixLJ two-component signaling; B. multivorans fixK-promoter GFP reporter, 18 h; active compounds read high; z-score (concentration not given with the values); 29,000 compounds, 0.3% hits;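 active = replicate mean overnight rise in green fluorescent reporter signal, 3 or more SD over negative controls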;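 note: score is relative to vehicle wells of the plate; 300 nL library stock went into each well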
* = called active by the depositor; & = joins results of further samples.

SMILES	Bm FixLJ act
CCc1ccc(NC(=O)CN(C)S(=O)(=O)c2ccc3c(c2)c(=O)n(C)c(=O)n3C)cc1	0.32
CCCC12CN3CC(CCC)(CN(C1)C3c1ccc(OCc3ccccc3)cc1)C2=O (stereo not drawn)	1.6
CCOc1ccc(C(=O)CCC(=O)N2CCOCC2CC(=O)O)cc1C (stereo not drawn)	1.7
CCN(C(=O)C(NS(=O)(=O)c1cccc2nsnc12)c1ccccc1)c1ccccc1 (stereo not drawn)	-1.9
Cc1ccc(S(=O)(=O)c2nnn3c2nc(N2CCCC(C)C2)c2cc(Cl)ccc23)cc1C (stereo not drawn)	0.09
Cc1c(C(c2ccc(F)cc2)c2c(O)c3ccccc3oc2=O)c(=O)n(-c2ccccc2)n1C (stereo not drawn)	0.48
Cc1nc(CC(=O)N2CCN(Cc3nonc3C)CC2)cs1	0.74
CCN(CC)S(=O)(=O)c1ccc2c(c1)N(CC(=O)NCCCN1CCN(c3cc(Cl)ccc3C)CC1)C(=O)CO2	-1
Cc1ccc2c(c1)c(CNC(=O)N1CCN3C(=O)OCC3C1)nn2C (stereo not drawn)	0.52
Cc1ccc(C(C)C)c(OCC(O)CN2CCN(c3ccccc3F)CC2)c1 (stereo not drawn)	-1.5
CCc1noc(CCNC(=O)c2cc(OC)nc3ccccc23)n1	-0.91
CCCC(=O)Nc1ccc(-c2nc3ncccc3o2)cc1C	-1.9
Nc1cc(N2CCCC(c3nccn3Cc3cscn3)C2)ncn1 (stereo not drawn)	0.21
C=CCOc1ccc(C(=O)N(Cc2nnc(CC)o2)C(C)C)cc1OCC	-2.1
Cc1cc(C)c(C#N)c(-c2cccc(C(=O)N(C)CCn3ccnc3C)c2)n1	0.85
CCN1CCN(C(=O)c2ccc3c(c2)N(Cc2c(F)cccc2Cl)C(=O)c2ccccc2S3)CC1	-1.5
CCn1nc(C(=O)O)c(=O)c2cc3c(cc21)OCO3	-0.86
Cc1ccc(C)c(CN2C(=O)c3ccccc3S(=O)(=O)c3ccc(C(=O)Nc4ccccc4C(F)(F)F)cc32)c1	-0.08
O=C(Cn1ncc2c3ccccc3n(Cc3ccccc3F)c2c1=O)N1CCCCCC1	-0.94
COC(=O)c1cc2oc(C)cc2n1CC(=O)Nc1cc(Cl)ccc1OC	0.01
Cc1cc(C)cc(-n2ccn3c(CC(C)(C)CC(=O)O)nnc3c2=O)c1	-0.54
Cc1ccc2ncc(C(=O)Nc3ccc(F)cc3F)c(=O)n2c1	0.49
CCn1c(N)nc2cc(C(=O)NCCCc3csc(N)n3)cnc21	0.44
CCOc1ccc(NC(=O)C2CCCN(c3ccc(Sc4ccc(C)cc4)nn3)C2)cc1 (stereo not drawn)	1.3
CN(Cc1cnn(-c2ccc(F)cc2)c1)C(=O)c1ccc(Cn2cnnn2)cc1	-2.1
Cc1ccc2oc(-c3cc(NC(=O)c4ccc5c(c4)OCCO5)cc(C)c3O)nc2c1	-1.5
Cc1ccc(CNC(=O)c2cc(=O)c3cc(C)cc(C)c3o2)cc1	0.15
CC(Oc1ccccc1)C(=O)N[C@@H]1C(=O)N2[C@@H]1SC(C)(C)[C@@H]2C(=O)O (stereo partly drawn)	-0.1
CCOC(=O)c1ccc(NC(=O)C2CCCN(c3ccc(Sc4ccc(C)cc4)nn3)C2)cc1 (stereo not drawn)	0.89
CC(=O)c1ccc(NC(=O)c2cc3c([nH]c2=O)CC(c2ccccc2)CC3=O)cc1 (stereo not drawn)	-0.36
O=C(CCCCc1cccnc1)N1CC2COC[C@]2(C(=O)NC2CCCC2)C1 (stereo partly drawn)	-3.6
CCS(=O)(=O)N1CCN(C2CCN(C(=O)c3cccnc3)CC2)CC1	-0.82
Cc1cc(N2CCC(C(=O)NCCC(C)C)CC2)n2nc(C)c(-c3ccc(Cl)cc3)c2n1	-1.9
CCN(C(=O)NCc1ccc(Cl)c(Cl)c1)C1COCC1O (stereo not drawn)	-0.01
CCOc1ccc(N(CC)C(=O)Cn2cnc3sc(C)c(S(=O)(=O)N4CCN(c5ncccn5)CC4)c3c2=O)cc1	-1.2
CCOC(=O)c1[nH]cnc1C(=O)Nc1ccc(F)cc1	-1.9
FC(F)(F)c1cc(-c2ccccc2)nc2cc(-c3ccccc3)nn12	-1.2
CCC(C(=O)Nc1ccc(C(C)C)cc1)n1nc(C)n2c(cc3cc(C)ccc32)c1=O (stereo not drawn)	-1.6
Cc1ccc(C)c(NC(=O)Nc2cccc(-c3cn4cccnc4n3)c2)c1	-2
O=C(NCc1noc(C2CCCO2)n1)c1ccc2n[nH]nc2c1 (stereo not drawn)	1.5
Cc1c(NC(=O)Nc2cccc(C(F)(F)F)c2)sc2nc3n(c(=O)c12)CCC(C)CC3 (stereo not drawn)	-1.6
CSc1ncc(Cl)c(C(=O)Nc2nc3ccc(F)cc3s2)n1	-1.4
Cc1nc(CC(C)C)cc(C(=O)N2CCC3OCc4cnnn4C3C2)n1 (stereo not drawn)	-2.9
Cc1ncsc1C(=O)Nc1ccc(Oc2nn[nH]n2)cc1	1
COc1cc([C@@H]2c3cc4c(cc3[C@@H](O[C@@H]3O[C@@H]5CO[C@@H](C)O[C@H]5[C@H](O)[C@H]3O)[C@H]3COC(=O)[C@H]23)OCO4)cc(OC)c1O	-1.5
COCCn1cnnc1CCNc1nc(CCN)nc2ccccc12	0
CN(C)c1nc(N(C)C)nc(N(C)C)n1	-0.99&-0.76
CC(C)CCOc1ccc(C(=O)Nc2sc3c(c2C#N)CCCCC3)cc1	0.65
C#C[C@]1(O)CC[C@H]2[C@@H]3CCC4=CC(=O)CCC4=C3C=C[C@@]21CC	-0.95
O=C1CCC(N2CCCN(C(=O)CCC3CCCCC3)CC2)CCN1 (stereo not drawn)	-0.84
Cc1nccn1CCC1CCCCN1C(=O)NCCSc1nccn1C (stereo not drawn)	-2.1
CNC(=O)C1CCCN1Cc1cc(-c2ccccn2)ccc1OCC(=O)O (stereo not drawn)	0.28
O=C(NCCCc1ncc[nH]1)c1sccc1S(=O)(=O)N1CCCC1	-1.4
CC(=O)c1cccc(NC(=O)C2CCN(S(=O)(=O)c3ccccc3)CC2)c1	-2.2
CN(Cc1ccoc1)C(=O)CN(C)C1CCS(=O)(=O)C1 (stereo not drawn)	-1.8
CCc1cc(N2CCN(CC(=O)Nc3cccc(C(=O)O)c3)CC2)ncn1	-0.11
CC(C)(C)C(=O)NC1CCOCC1Oc1ccc(C(=O)O)cc1 (stereo not drawn)	-0.31
Cc1nc(N2CCC(C(O)c3cccs3)CC2)c2cnn(C)c2n1 (stereo not drawn)	-0.91
COc1ccc(CN2CCN(CC(=O)O)C(=O)C2C)c(C)c1 (stereo not drawn)	-0.1
CCN(C(=O)Cn1nc(Cc2ccncc2)c2ccccc2c1=O)c1ccc(OC)cc1	-0.63
Continuation.
SMILES	Bm FixLJ act
CCc1nn(CCCC(=O)NCc2ccc(C)cc2)c(=O)c2cc3occc3n12	-1.6
COc1cc(OC)c(NC(=O)C(Cc2ccccc2)NS(=O)(=O)c2cccc3nsnc23)cc1Cl (stereo not drawn)	-1.7
CCC1C(=O)NCCN1C(=O)NCCOc1ccc(Cl)cc1 (stereo not drawn)	-0.6
Cc1nnc(CN2CCC(O)[C@]3(CCCN(C(=O)CC4=CCCC4)C3)C2)o1 (stereo partly drawn)	-0.73
O=C(Nc1ccc(F)cc1F)c1cc(-c2ccc(Cl)cc2)on1	-1
O=C(Cn1cc(S(=O)(=O)c2ccc(Cl)cc2)c(=O)c2ccccc21)Nc1ccc2c(c1)OCO2	-1.2
CCC(=O)N1CCc2cc(S(=O)(=O)NCCC(=O)Nc3cccc(C)c3C)ccc21	-0.9
COc1ccccc1C(=O)Nc1c(C(=O)N(C)Cc2ccccc2)sc2nc(C)c(Cl)c(C)c12	0.17
Cc1ccc(-c2nc3ccc(Cl)cn3c2Nc2ccc3c(c2)OCCO3)o1	-1.1
COCCCn1cnnc1CNC(=O)c1c[nH]c2ccccc12	-4.5
CCCC(=O)Nc1cccc(NC(=O)N2CCC(F)(F)CC2)c1	-1.4
CCCCc1ccc(NC(=O)NCCc2n[nH]c(C)n2)cc1	0.47

In another format: 15 of the compounds above
mol,Bm FixLJ act
Cc1nc(N2CCC(C(O)c3cccs3)CC2)c2cnn(C)c2n1 (stereo not drawn),-0.91
COc1ccc(CN2CCN(CC(=O)O)C(=O)C2C)c(C)c1 (stereo not drawn),-0.1
CCN(C(=O)Cn1nc(Cc2ccncc2)c2ccccc2c1=O)c1ccc(OC)cc1,-0.63
CCc1nn(CCCC(=O)NCc2ccc(C)cc2)c(=O)c2cc3occc3n12,-1.6
COc1cc(OC)c(NC(=O)C(Cc2ccccc2)NS(=O)(=O)c2cccc3nsnc23)cc1Cl (stereo not drawn),-1.7
CCC1C(=O)NCCN1C(=O)NCCOc1ccc(Cl)cc1 (stereo not drawn),-0.6
Cc1nnc(CN2CCC(O)[C@]3(CCCN(C(=O)CC4=CCCC4)C3)C2)o1 (stereo partly drawn),-0.73
O=C(Nc1ccc(F)cc1F)c1cc(-c2ccc(Cl)cc2)on1,-1
O=C(Cn1cc(S(=O)(=O)c2ccc(Cl)cc2)c(=O)c2ccccc21)Nc1ccc2c(c1)OCO2,-1.2
CCC(=O)N1CCc2cc(S(=O)(=O)NCCC(=O)Nc3cccc(C)c3C)ccc21,-0.9
COc1ccccc1C(=O)Nc1c(C(=O)N(C)Cc2ccccc2)sc2nc(C)c(Cl)c(C)c12,0.17
Cc1ccc(-c2nc3ccc(Cl)cn3c2Nc2ccc3c(c2)OCCO3)o1,-1.1
COCCCn1cnnc1CNC(=O)c1c[nH]c2ccccc12,-4.5
CCCC(=O)Nc1cccc(NC(=O)N2CCC(F)(F)CC2)c1,-1.4
CCCCc1ccc(NC(=O)NCCc2n[nH]c(C)n2)cc1,0.47

Further structures follow.
SMILES	Bm FixLJ act
CCOCCN1CCN(C(=O)c2cccc(-c3ncccc3C#N)c2)CC1	0.6
Cc1ccc(C)c(S(=O)(=O)c2cn(Cc3ccccc3)c3cc(F)c(F)cc3c2=O)c1	-1.1
COc1ccc(CN(C)Cc2snnc2C)cc1C(=O)O	-1.7
Cc1nc(-c2cccc(C(=O)N(C)Cc3cnn(C)c3)c2)c(C#N)c(C)c1C	-0.53
Cc1ccc(-n2nc(C(=O)Nc3ccc(C)c(F)c3)c3c4ccccc4n(C)c3c2=O)cc1	-1.1
COc1ccc2oc(=O)cc(CN3CCN(Cc4ccccc4)CC3)c2c1	-1.5
CCn1c(C(=O)N2CCCC(C(=O)NCCCOC)C2)cc2sccc21 (stereo not drawn)	-0.84
Cc1cc(F)cc(C(=O)N2CC(O)C(Cc3cc(C)[nH]n3)C2)c1 (stereo not drawn)	-0.68
Cn1c(=O)c2c(nc(Oc3ccccc3)n2Cc2c(Cl)cccc2Cl)n(C)c1=O	0
Cc1cccc(C2CC(=O)Oc3c2c(=O)oc2ccccc32)c1 (stereo not drawn)	-1
CCCCNC(=O)CN1C(=O)COc2ccc(S(=O)(=O)N3CCCCCC3)cc21	0.01
COc1ccc(C(C)NC(=O)CSc2ccncc2)cc1F (stereo not drawn)	-2.3
O=C(CCN1CCCCC1)NC1COCCC1OCc1ccccc1 (stereo not drawn)	-3.2
CC1=Nc2cc(C(=O)NC3CCCC3)ccc2Sc2ccc(C)cc21	-0.91
COc1ccccc1C(=O)NC(=O)Nc1ccc(-c2cc(C(F)(F)F)nn2-c2ccccc2)cc1	0.23
Cc1ccc(-c2nc3ccccc3[nH]2)cc1NC(=O)COc1cccc(C)c1C	0.03
Cc1ccccc1Nc1c(-c2ccccc2)nc2cccc(C)n12	0.11
COc1ccc(-c2cn(-c3ccc(C)cc3)c(S(=O)(=O)CC(=O)Nc3ccccc3)n2)cc1	2.8
CC(C)C1=NOC(C(=O)NCc2ccc(-c3ncon3)cc2)C1 (stereo not drawn)	0.52
Cc1nn(C)c2nc(N3CCN(C(=O)CC(C)C)CC3)sc12	-3
O=C(Cn1c(=O)n(-c2ccccc2)c(=O)c2c3c(sc21)CCC3)c1ccc(F)cc1	-0.58
CCc1noc(CN2CCC3(CC2)CC(=O)N(Cc2coc(C)n2)CCO3)n1	0.7
O=c1cc(COc2ccccc2Cl)nc2scc(-c3ccccc3)n12	-2
O=C(CCCc1ccc(Cl)cc1)NCCC(=O)Nc1nccs1	-0.89
COc1cc(C(=O)Nc2ccc3nc4n(c(=O)c3c2)CCCCC4)cc(OC)c1OC	-0.2
CCOc1ccc(NC(=O)Cn2cc(C(=O)c3ccc(OCC)cc3)c(=O)c3cc4c(cc32)OCCO4)cc1	-1.2
CCCCCn1c(=N)c(S(=O)(=O)c2ccccc2)cc2c(=O)n3cccc(C)c3nc21	-1.2
CCc1ccc(CNCc2csc(-c3cnccn3)n2)nc1	-1.6
CCCCSc1nnc2c(n1)OC(C)N(C(C)=O)c1ccccc1-2 (stereo not drawn)	0.17
CCCCNC(=O)c1nn(-c2ccc(CC)cc2)nc1CO	0.55
Cc1cc(C)n(-c2ccccc2CN(C)Cc2noc(C(C)C)n2)n1	0.73
Cc1ccc(/C=C/C(=O)Nc2ccc(S(N)(=O)=O)cc2)o1	-1.1
COc1cccc(NC(=O)Cn2c(=O)n(CC(=O)NCc3ccc(C)cc3)c(=O)c3sccc32)c1	-0.17
COc1ccc(-c2cnc(NCc3ccc(C)cc3)n2C)cc1	-1.1
CC(=O)N1CCc2cc(S(=O)(=O)NC(CC(C)C)C(=O)NCc3ccccc3Cl)ccc21 (stereo not drawn)	-1.3
CCC(=O)N1c2ccc(S(=O)(=O)N3CCCCCC3)cc2CC1C (stereo not drawn)	-1.2
CCOC(=O)c1cnc2c(C)cc(C)cc2c1NCCN1CCOCC1	-0.98
CCCCN(C)CCCNC(=O)C1CCN(c2nc3ccc(CC)cc3s2)CC1	-0.72
CCCN(CCC)CC(O)Cn1cc(/C=C/C(=O)c2ccc(C)cc2)c2ccccc21 (stereo not drawn)	-4.2
COc1ccc(/C=C(/C#N)c2nc(-c3ccc(Br)cc3)cs2)cc1	-1.2
COC1CCN(S(=O)(=O)c2cc(-c3cc(C)[nH]n3)sc2C)CC1	-0.98
Cc1ccc(C)c(CN2C(=O)c3ccccc3S(=O)(=O)c3ccc(C(=O)N4CCN(C)CC4)cc32)c1	-0.05
CC(C)(C)c1ccc(C(=O)Nc2ccc(NC(=O)c3ccc(Cl)c(Cl)c3)cc2)cc1	1.3
Fc1ccc(NCc2nc3ccccc3n2CCOc2ccccc2Cl)cc1	3.3*

These rows are one share of the data; the hit share may differ from the screen's.
